# Screening data: PubChem, National Center for Advancing Translational Sciences (NCATS)
# Rango-impB inh = inhibitors of Rango-importin beta complex formation; Q14974; Rango CFP/YFP FRET sensor + importin beta, 45 min; 0.031% of 340,000 active; Potency, µM (highest dose often 92.2 µM), for inactives: top-dose inhibition of complex formation; active = rising FRET ratio curve, often small or poorly fitted; inconclusive = mostly compound fluorescence or quenching in the first reads; inactive = flat curves in all reads;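 note: potency is the fitted concentration of half-maximal effect; 0% = DMSO wells and 100% = buffer wells lacking importin beta; nearly all actives have a fitted effect of over 15% in size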
# Target sequence (Q14974 whole entry, looked up): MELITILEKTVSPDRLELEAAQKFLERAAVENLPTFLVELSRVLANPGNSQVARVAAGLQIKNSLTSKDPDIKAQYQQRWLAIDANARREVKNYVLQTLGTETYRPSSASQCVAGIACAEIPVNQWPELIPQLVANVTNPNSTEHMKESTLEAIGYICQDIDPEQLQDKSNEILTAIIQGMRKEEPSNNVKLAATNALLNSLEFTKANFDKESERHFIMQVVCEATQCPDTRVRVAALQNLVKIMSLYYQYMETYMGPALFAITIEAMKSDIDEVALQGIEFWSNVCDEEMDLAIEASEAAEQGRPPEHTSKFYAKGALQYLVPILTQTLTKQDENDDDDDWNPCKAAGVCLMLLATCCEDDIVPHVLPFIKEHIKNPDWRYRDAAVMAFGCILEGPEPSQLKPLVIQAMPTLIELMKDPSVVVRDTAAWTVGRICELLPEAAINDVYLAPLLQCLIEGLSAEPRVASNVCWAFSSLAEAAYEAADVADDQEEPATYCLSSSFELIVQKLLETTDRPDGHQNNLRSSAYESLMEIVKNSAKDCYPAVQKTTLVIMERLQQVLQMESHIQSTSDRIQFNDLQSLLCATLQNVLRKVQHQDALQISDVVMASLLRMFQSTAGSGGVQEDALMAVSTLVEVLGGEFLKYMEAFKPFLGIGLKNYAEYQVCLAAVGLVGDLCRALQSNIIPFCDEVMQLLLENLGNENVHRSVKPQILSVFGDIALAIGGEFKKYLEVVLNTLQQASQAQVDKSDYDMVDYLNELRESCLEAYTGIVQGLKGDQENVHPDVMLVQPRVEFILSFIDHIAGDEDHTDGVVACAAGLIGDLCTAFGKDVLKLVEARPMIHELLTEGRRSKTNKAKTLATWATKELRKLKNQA
#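 FRET biosensor Rango (snurportin 1 IBB between N-terminal EYFP and C-terminal Cerulean), 50 nM in PBS/1 mM DTT/0.02% Tween-20/0.1% BSA, preincubated 5 min RT with compound; 0.125 microM importin beta added, 45 min RT, CFP/YFP FRET ratio read.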
# Rango release inh = inhibition of RanGTP-driven Rango-importin beta dissociation | 0.071% of 340,000 active | Potency, µM (series often up to 46.1 µM), for inactives: at the highest dose activity change, negative = inhibition | Biochemical FRET Rango-importin beta, RanGTP-induced dissociation; active means falling FRET ratio curve, often poorly fitted, with flat reads before Ran was added; inconclusive means other falling curves, or compound fluorescence or quenching; inactive means flat or rising ratio curve;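 note: potency is the fitted concentration of half-maximal effect; % of control where 0% means no effect; nearly all actives have a fitted effect of over 45% in size; -100% = wells without RanGTP and RCC1; the record marks most hits as doubtful in a second field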
#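 Compounds sat 5 min at room temperature with 0.1 uM Rango biosensor plus 0.25 uM importin beta, then FRET pre-read. RanGTP-RCC1 (0.6 uM Ran, 2mM GTP, 0.2 uM RCC1) added for 45 min, and the CFP/YFP post-read measured blocked complex dissociation.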
# GLA inh pH 4.5 = blocks human alpha-galactosidase A at pH 4.5 | P06280 | purified enzyme, 4-MU-alpha-Gal fluorescence, pH 4.5 | activity change, negative = inhibition, % at 105 µM | 230,000 tested, under 10 active; inconclusive = small, poorly fitted or top-dose-only inhibition, or a rising curve; inactive = flat fitted curve, though single readings scatter; no compound was filed as active;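 note: 0% = full activity with enzyme and -100% = basal without enzyme; dose as in the result columns while the protocol names 77 µM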
# miR-21 reporter = miR-21 reporter, rising signal. 340,000 tested, under 10 active. Potency, µM (series often up to 38.3 µM), for inactives: at the highest dose reporter change, positive = more light. HeLa miR-21 FLuc reporter, luciferase, 48 h; active = well fitted rising curve with a large enough effect; inconclusive = small, poorly fitted or top-dose-only effect; inactive = no such curve, though single readings can be large or run the other way;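 note: % of control where 0% means no effect; miR-21 action dims this reporter so a rising signal means less miR-21 action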
#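 Using DMEM plus 10% FBS, HeLa miR-21-FLuc cells are incubated with test compounds (final up to about 40uM) for 48 hours; firefly luciferase signal is then imaged following reagent-mediated lysis.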
# * = called active by the depositor; ? = inconclusive; / = no result given; & = joins results of further samples; [ ] = another dose, or the depositor's remark. This is a subset. The share of hits here may be higher or lower than overall.
SMILES,Rango-impB inh,Rango release inh,GLA inh pH 4.5,miR-21 reporter
Cc1ccc(C(C(=O)NCC2CCCO2)N(C(=O)c2snc(C(N)=O)c2N)c2ccc3c(c2)OCCO3)cc1 (stereo not given),-1.3%,0.3%,/,2.3%
CC(C)CCNC(=O)CCn1c(=S)oc2ccccc21,-1.8%,1.8%,-4.9[21.1 µM],-8.5%
COc1ccc(C(Nc2ccccn2)c2c(NC(=O)c3ccco3)sc(C)c2C)cc1 (stereo not given),-0.3%,-3.9%,-4.0,-45.6%
COc1ccc(C(C#N)Nc2ccccc2OC)cc1 (stereo not given),-1.6%,0.1%,-6.7,-3.0%
Cc1cc(SCC(=O)NN)c2cc(Br)ccc2n1,1.4%,-6.9%,-1.1,1.5%
COc1ccc(-c2csc3nc[nH]c(=O)c23)cc1,2.2%,17.1%,0.6,-1.3%
CCc1nc(SCC(=O)N2CCCCCC2)c2c(=O)n(C)c(=O)n(C)c2n1,2.1%,-5.5%,/,11.1%
CCOc1ccc(NC(=O)c2ccc(N3CC4CC(C3)c3cccc(=O)n3C4)c(NC(=O)CCN3CCOCC3)c2)cc1 (stereo not given),4.0%,4.8%,/,-5.5%
O=C(Nc1cccc2ccccc12)C12CC3CC(C1)CC(n1cnc([N+](=O)[O-])n1)(C3)C2,-0.1%,4.4%,3.0,24.7%
C[C@]12C=CC(=O)C=C1CC[C@@H]1C2C(O)C[C@@]2(C)C1CC[C@]2(O)C(=O)COC(=O)CCC(=O)NC(CC(=O)O)C(=O)O (stereo not given in full),6.9%,10.9%,/,-30.0%
CC(C)OC(=O)C1C(=O)CC(C)(O)C(C(=O)OC(C)C)C1c1cccc(O)c1 (stereo not given),-2.0%,2.9%,/,0.5%
CCCCCn1c(=O)c2ccccc2n2c(CCl)nnc12,0.0%,1.3%,9.7,27.1%
NC(=O)c1cc2cc(Cl)ccc2o/c1=N/NC(=O)c1cccs1,-0.7%,-4.4%,-7.0,-11.0%
CN(C)S(=O)(=O)c1ccc(NC(=O)CSc2ncnc3ccccc23)cc1,4.7%,23.1%,-10.4,-3.7%
CCOc1ccc(-n2c(O)c(/C=N/Nc3nnc(C)c(=O)[nH]3)c3ccccc3c2=O)cc1,?,?,2.6,1.4%
O=C(COC(=O)c1ccccn1)Nc1ncc(C(F)(F)F)cc1Cl,-2.3%,-5.3%,-5.9,-1.8%
O=C(O)CSc1nnc(COc2ccccc2)n1-c1ccccc1,?,0.9%,/,-0.8%
CCCCn1c(NCCN(C)C)nc2c1c(=O)[nH]c(=O)n2C,-0.1%,17.6%,0.9,1.7%
O=C(Nc1ccc(F)c(F)c1)c1ccccc1,8.9%,-13.3%,/,/
O=C(O)Cc1ccc(NS(=O)(=O)c2ccccc2Br)cc1,6.2%,0.8%,7.1,-1.8%
Cc1cc2c(NC(=O)CC(C)(C)CC(=O)O)cccc2nn1,-0.4%,5.3%,-0.3,6.3%
Cc1cc([N+](=O)[O-])ccc1NC(=O)CSc1nncn1-c1ccccn1,-1.4%,-1.9%,/,-9.0%
COc1ccc(C2/C(=C(/O)c3ccccc3)C(=O)C(=O)N2C)cc1OC (stereo not given),-0.3%,-10.6%,/,-4.8%
CC1CCC2(CC1)NC(=O)N(CC(=O)N1CCN(C(=O)c3ccco3)CC1)C2=O (stereo not given),3.6%,9.1%,/,/
O=C(NCCc1cnc[nH]1)c1cccs1,0.4%,-7.2%,/,0.0%

# Next section:
SMILES,Rango-impB inh,Rango release inh,GLA inh pH 4.5,miR-21 reporter
COc1ccc(-c2cc(C(=O)Nc3cc(C)on3)no2)cc1OC,-1.4%,-5.2%,2.6,-4.6%
C/C(Cn1nnc([N+](=O)[O-])n1)=N\NC(=O)c1ccc(O)cc1,0.6%,4.0%,0.9,20.9%
Cc1onc(-c2ccccc2)c1C(O)c1ccc(F)cc1 (stereo not given),-1.7%,-0.4%,/,0.3%
CN(C)c1ccc(S(=O)(=O)N2CCCCC2)cc1NC(=O)CCNC(=O)c1ccccc1Cl,0.7%,-2.7%,/,/
COc1ccccc1CCC(=O)OCC(=O)NC1CCCC1,-0.4%,-7.0%,/,/
Cc1nn(C)c(C)c1CCC(=O)O,5.3%,-13.4%,-2.0,-1.3%
COc1ccccc1C(=O)NC(=O)COC(=O)CCOc1cc(C)ccc1C,-1.1%,1.0%,/,-2.9%
O=C(NC1=NCCCCC1)c1cccc2ccccc12,-2.2%,2.8%,-17.7,-1.1%
CCc1n[nH]c(=S)n1/N=C/c1cc(Br)c(O)c(OC)c1,-4.3%,-12.8%,-4.9,-2.5%
Cc1ccc(-c2nn3c(C)nnc3c3ccccc23)cc1S(=O)(=O)NCCO,0.6%,-3.5%,-22.2,-16.1%&-20.2%
COc1ccc(-c2csc(NC(=S)NC(=O)/C=C/c3ccco3)n2)cc1OC,-1.5%,10.3%,-1.5,15.7%
COCCNC(=O)Nc1ccc2nc(-c3cccs3)c(-c3cccs3)nc2c1,?,?,-1.0,12.8%
Cc1cc2cc(CN(Cc3ccco3)C(=O)NCc3ccccc3)c(=O)[nH]c2cc1C,5.8%,-2.1%,-7.3,-7.5%
CC1=C([N+](=O)[O-])C(c2ccccc2Cl)NC(=O)N1C (stereo not given),-4.2%,-13.7%,/,3.6%
O=c1[nH]c(C2CCN(S(=O)(=O)c3ccc(C(F)(F)F)cc3)CC2)nc2c1nnn2Cc1cccc(F)c1,-1.3%,19.0%,/,-0.5%
C/C(=N\NC(=O)c1c(Cl)c(C)nn1C)c1cccc(NC(=O)c2cccc(F)c2)c1,0.6%,1.0%,/,-10.5%
CCS(=O)(=O)NCCc1cc2cc(C)c(C)cc2[nH]c1=O,0.5%,0.6%,-5.5,-14.8%
COCCCn1c(=O)c2sccc2n2c(CCCC(=O)NCc3ccccc3OC)nnc12,2.5%,0.1%,/,3.4%
O=c1oc2ccccc2c2oc3cc(O)c(O)cc3c12,?,-24.0%,1.7&-1.5,-40.1%
CC(C)C[C@@H]1NC(=O)[C@H](CO)NC(=O)c2cc([N+](=O)[O-])cc(I)c2OCC[C@@H](C(N)=O)NC1=O,4.7%,10.1%,-2.9,-12.7%
Cc1ccc(S(=O)(=O)Nc2ccc3ccccc3c2[N+](=O)[O-])cc1,0.0%,-7.6%,/,/
CCOc1ccccc1N1CCN(C(=O)NC2CCCCC2)CC1,1.6%,-11.7%,/,-1.4%
O=C(CCCC1=NS(=O)(=O)c2ccccc2N1)N1CCN(c2ccccc2)CC1,-0.6%,-8.2%,0.4,-3.7%
CCCC(O)(c1ccc(OC)cc1)C(CN1CCOCC1)c1ccc(Cl)cc1 (stereo not given),-1.1%,-1.7%,/,18.6%
Cc1ccc(/C(N)=N/OC(=O)Cc2cccs2)cc1,-2.3%,-0.1%,8.0,-40.1%

# Continuation.
SMILES,Rango-impB inh,Rango release inh,GLA inh pH 4.5,miR-21 reporter
COc1ccc(/C=C/c2ccccc2)cc1[C@H]1[C@@H]2C=CCC[C@@]2(C)C(=O)N1Cc1ccccc1,-3.5%,-22.9%,-11.9,-5.2%
O=C(COc1ccc(S(=O)(=O)NC2CCCCC2)cc1Cl)N1CCN(c2ccccc2)CC1,0.5%,13.0%,-14.9,15.3%
CCCCN(CC)S(=O)(=O)c1ccc2c(c1)CCCN2C(C)=O,0.1%,5.2%,-2.0,-0.8%
COc1ccsc1C(=O)NCCN1CCOCC1,-0.7%,-0.9%,/,-0.5%
C#CCOCCOCCOCCNc1nc(N2CCOCC2)nc(N2CCN(C(=O)CCCCCCCCCCNC(=O)[C@H](CO)n3cc(CCCCCN)nn3)CC2)n1,-1.0%,21.9%,/,/
CC(C)[C@H](Nc1ccc(S(=O)(=O)N2CCOCC2)cc1[N+](=O)[O-])C(=O)OCC(N)=O,0.0%,7.0%,1.8,-4.7%
CCOC(=O)c1c(C)[nH]c(C)c1C(=O)COC(=O)c1ccc(S(=O)(=O)C(F)F)cc1,-2.2%,0.8%,/,/
O=C(Cn1cnc2ccccc2c1=O)NCC(=O)N1CCN(c2ccccn2)CC1,0.9%,-3.5%,-5.0,-5.1%
Cc1ccc(NC2CCCN(C(=O)C3CCCC3)C2)cc1C (stereo not given),0.4%,-12.8%,/,-3.9%
COc1ccc(CNC(=O)c2cc(=O)c3cc(C)cc(C)c3o2)cc1,1.2%,-6.1%,/,-0.3%
OCC[C@H]1C[C@@H](O)[C@H](O)[C@]2(Cc3ccccc3CO2)O1,3.6%,1.8%,/,/
COc1ccc(/C=C/C(=O)OC(C)CN2CCOCC2)cc1 (stereo not given),5.6%,11.6%,-7.9,-4.1%
O=C(CN(C(=O)C1CSC(=O)C1)c1ccccc1F)NCc1ccc2c(c1)OCO2 (stereo not given),-0.6%,6.5%,9.2,-2.9%
O=C1C2(CCCC13COC(c1ccc(O)cc1)OC3)COC(c1ccc(O)cc1)OC2 (stereo not given),-3.9%,-9.2%,-4.8,-9.9%
O=C(Nc1ccc(NC(=O)c2ccccn2)cc1)C(=O)Nc1ccc2c(c1)OCCO2,-0.5%,-5.6%,1.2,-8.8%
COc1cc(C(=O)N2CCNCC2)cc(OC)c1OC,-1.6%,16.9%,/,-5.8%
Cc1cccc(N2C(=O)CC(N3CCN(c4ccc(Cl)cc4)CC3)C2=O)c1 (stereo not given),0.5%,-3.4%,/,-1.5%
O=C(Nc1ccc2c(c1)OCCO2)c1cccc(C(=O)Nc2ccc3c(c2)OCCO3)c1,2.8%,1.2%,/,-31.9%
CC(=O)c1ccc(N2CCN(C(=O)CCCn3c(=O)[nH]c4ccc(Br)cc4c3=O)CC2)cc1,0.1%,-11.4%,-13.5,-1.2%
N#C/C(=C(/O)CN1CCN(c2ccccc2F)CC1)c1nc(-c2ccccc2)cs1,?,?,-0.9,-2.2%
CC(C)c1ccc2[nH]c3c(c2c1)CCCC3=O,0.7%,5.5%,-0.4,12.7%
Cc1ccccc1-n1c(Cn2c(=O)sc3ccccc32)nnc1SCC(=O)N1CCOCC1,3.6%,21.2%,-11.6,-4.2%
Cc1cccc(NC(=O)c2ccc(OCc3c(C)noc3C)cc2)c1C,0.9%,-8.8%,/,/
CC(C)(C)C(=O)N1CCN(c2ccc(NC(=O)c3ccco3)cc2)CC1,6.2%,1.8%,/,-2.8%
CCc1ccc(NC(=O)COC(=O)C2(c3ccc(Cl)cc3)CCCC2)cc1,0.5%,6.9%,-19.6,16.2%

# Next entries.
SMILES,Rango-impB inh,Rango release inh,GLA inh pH 4.5,miR-21 reporter
Cc1cccc(C)c1N/C=C/c1onc(C)c1[N+](=O)[O-],?,-19.0%,-5.5,-4.8%
CN(C)S(=O)(=O)c1ccc(C(=O)Nc2ccccc2[N+](=O)[O-])cc1,5.0%,-5.8%,4.5,-9.1%
Cc1ccccc1N1CCN(C2CCCN(C(=O)c3cc(C(C)C)[nH]n3)C2)CC1 (stereo not given),-0.6%,-2.5%,/,-0.3%
CC(=O)c1ccc(NC(=O)C2CCC(C)NC2=O)cc1 (stereo not given),-0.5%,-4.8%,10.0,-4.3%
Cc1ccnc(NC(=O)c2sc3ccccc3c2Cl)c1,0.3%,-7.4%,-1.7,-59.9%
NC(=O)C1CCCN(Cc2ccc(Cl)cc2)C1 (stereo not given),4.8%,-5.4%,-19.6,-0.4%
Cc1cccc(C)c1NS(=O)(=O)c1ccc(NC(=O)c2ccc(Cl)c([N+](=O)[O-])c2)cc1,1.1%,-16.4%,2.2,?
CCCCn1c(N)c(N(CCOC)C(=O)CSc2n[nH]c(-c3ccc(C)cc3)n2)c(=O)[nH]c1=O,1.3%,-7.2%,/,/
Cc1ccc2nc(-c3ccc4c(c3)OCCO4)cn2c1,-1.1%,-23.4%,4.1,?
Cc1ccc(S(=O)(=O)NCC(=O)NCC2CCCCC2)cc1C,1.4%,2.9%,/,-2.5%
COc1cccc(NC(=O)COC(=O)c2ccc(C)c(S(=O)(=O)N3CCCCC3)c2)c1,-1.3%,14.9%,/,/
CC12CC3CC(C)(C1)CC(C(=O)N1CCN(C(=O)c4ccco4)CC1)(C3)C2,-1.5%,7.0%,/,-4.8%
